# RECQ1 helicase: inhibitors of human RECQ1 DNA helicase; RECQ1 DNA unwinding, red fluorescence kinetic read; Potency, µM (doses to about 57.3 µM), for inactives: top-dose activity, negative = inhibition, usual class: inhibitors; actives 0.54% (n = 240,000); AID 2549;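 also: plate controls were vehicle for no effect and no enzyme for full effect; nearly all actives have a fitted effect of over 30% in size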
#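 50 nM RECQ1T1 preincubated 15 min with compound in Tris pH 8.0 buffer with MgCl2, DTT, Tween-20 and 2.5 ug/ml poly(dI-dC); started with 200 nM TAMRA/BHQ-2 forked duplex and 2 mM ATP. Unwinding read as fluorescence (525/598 nm), two reads 2 h apart.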
# SMN2 splice up: increases expression of the SMN2 splice variant; HEK293 SMN2-luciferase splicing reporter, luminescence, 30-36 h; Potency, µM (titrated, usually from 46.1 µM), for inactives: top-dose activity change, positive = activation, usual class: activators; actives 2.8% (n = 210,000); also: % of control where 0% means no effect; nearly all actives have a fitted effect of over 55% in size
#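 HEK293 cells carry an SMN2 minigene-luciferase reporter in which exon 7 inclusion puts luciferase in frame. Cells were seeded at 2000 cells/well, attached for 10-12 hours, then exposed to compounds for 30-36 hours at 37C before ONE-Glo luminescence.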
# KDM4E inh: inhibitors of human JMJD2E histone demethylase; Potency, µM (top dose mostly 57.1 µM), inactives show at the top dose activity change, negative = inhibition, actives largely listed as inhibitors; AID 2147; JMJD2E catalytic domain, FDH-coupled NADH fluorescence (FDH is formaldehyde dehydrogenase); actives 1.6% (n = 230,000); active = well fitted inhibition curve with a large enough effect, not every such curve was filed as active; inconclusive = small, poorly fitted or top-dose-only effect, or another doubt; inactive = no such curve, though single readings can be large or run the other way;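 also: 0% = wells with enzyme and -100% = buffer wells without enzyme; nearly all actives have a fitted effect of over 50% in size; many of its hits are not listed in these tables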
# Target sequence (B2RXH2 1-337 limits assumed): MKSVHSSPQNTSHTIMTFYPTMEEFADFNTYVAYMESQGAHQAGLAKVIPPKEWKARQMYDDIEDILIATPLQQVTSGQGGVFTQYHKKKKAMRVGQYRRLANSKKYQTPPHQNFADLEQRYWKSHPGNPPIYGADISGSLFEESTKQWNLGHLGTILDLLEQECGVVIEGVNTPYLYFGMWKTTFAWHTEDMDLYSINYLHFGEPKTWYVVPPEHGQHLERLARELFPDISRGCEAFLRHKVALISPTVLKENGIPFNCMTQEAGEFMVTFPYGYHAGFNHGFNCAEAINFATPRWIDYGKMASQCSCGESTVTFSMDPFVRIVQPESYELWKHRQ
# NPSR antag: blocks cAMP signaling of the human neuropeptide S receptor. Q6W5P4. CHO-NPSR cells, cAMP TR-FRET, antagonist mode. Potency, µM (titrated, usually from 38.3 µM), inactives show top-dose activity change, negative = inhibition, hits mostly inhibitors. actives 1% (n = 220,000); also: % is scaled to controls: 0 for no effect and ±100 for the full control effect; nearly all actives have a fitted effect of over 50% in size; many of its hits are not listed in these tables
# Target sequence (Q6W5P4 whole entry, looked up): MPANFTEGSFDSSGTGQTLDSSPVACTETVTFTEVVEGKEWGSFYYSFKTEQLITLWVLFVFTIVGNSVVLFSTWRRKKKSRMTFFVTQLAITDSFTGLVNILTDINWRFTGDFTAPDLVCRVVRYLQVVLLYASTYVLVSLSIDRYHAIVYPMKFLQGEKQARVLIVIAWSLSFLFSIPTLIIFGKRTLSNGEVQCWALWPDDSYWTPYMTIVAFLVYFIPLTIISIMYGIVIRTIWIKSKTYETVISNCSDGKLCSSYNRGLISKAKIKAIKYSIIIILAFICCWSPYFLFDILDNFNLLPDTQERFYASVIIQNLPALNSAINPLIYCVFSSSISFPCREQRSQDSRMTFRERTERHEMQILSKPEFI
# Epigenetic reg: regulators of epigenetic silencing causing reporter derepression in mouse cells; murine LDR cells, GFP reporter derepression, 30 h; actives 0.2% (n = 280,000); AID 1865; Potency, µM (top dose mostly 53.9 µM), for inactives: top-dose GFP activation, actives largely listed as activators; also: % of control where 0% means no effect; nearly all actives have a fitted effect of over 60% in size
#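 GFP-positive cell count by laser-scanning cytometry (objects 20–120 um) after 30 h, 37 C compound exposure of murine LDR cells; reporter is CMV-GFP integrated at a silenced locus, inducible by HDAC or DNMT inhibitors.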
# KinaseGlo FLuc: counter-screen: inhibitors of Kinase-Glo firefly luciferase; Q27757; Kinase-Glo luciferase, ATP luminescence, 8 min; Potency, µM (titrated, usually from 38.3 µM), for inactives: at the top dose activity change, negative = inhibition, actives largely listed as inhibitors; actives 0.28% (n = 200,000); also: % is scaled to controls: 0 for no effect and ±100 for the full control effect; nearly all actives have a fitted effect of over 60% in size
#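 Kinase-Glo luciferase light output from ATP and luciferin was measured with 10 uM ATP, within the enzyme's linear range. Buffer: 50 mM imidazole pH 7.2, 50 mM KCl, 7 mM MgCl2, 0.01% Tween 20, 0.05% BSA; luminescence read after 8 min at ambient temperature.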
# IMPase Li inh: cell-permeable IMPase inhibitors with lithium potentiation; CHO-M1 cells, IP1 TR-FRET (IP-One), carbachol + lithium; Potency, µM (titrated, usually from 59.4 µM), for the others: at the top dose activity, negative = IMPase inhibition, actives largely listed as inhibitors; actives 0.35% (n = 210,000); AID 1457;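 also: IP1 builds up when IMPase is blocked and the TR-FRET signal falls; plate controls were basal vehicle for no effect and high inhibitor control for full effect; nearly all actives have a fitted effect of over 50% in size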
#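 Test compounds were applied to CHO-M1 cells previously cultured for 16–30 h at 2000 per well. A small lithium amount accompanied them; after 30 min at 37C, IP1 was quantified by TR-FRET.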
# Starred values were filed as active, the others as inactive; i = inactive; ? = inconclusive; . = not tested or not shown; & = joins results of further samples; [ ] = dose if it differs, or a comment. Unless noted, calls follow the shape of the dose curve; as a rule, active = well fitted curve in the direction sought with a large enough effect; inconclusive = small, poorly fitted or top-dose-only effect, or another doubt; inactive = no such curve, though single readings can be large; an effect the other way counts as inactive or inconclusive. Potency is read from the fitted curve at half-maximal effect.
SMILES,RECQ1 helicase,SMN2 splice up,KDM4E inh,NPSR antag,Epigenetic reg,KinaseGlo FLuc,IMPase Li inh
Cc1ccc(-n2c(=O)cc(N3CCc4ccccc4C3)[nH]c2=O)cc1,i,11%,-25%,-3%,-1.0%,-1%,9%
COc1ccc(/C=N/NC(=O)C(Cc2c[nH]c3ccccc23)NC(=O)OCC(C)C)cc1[N+](=O)[O-] (stereo unspecified),-4%,-7%,-26%,-12%[46.1 µM],5.2%,0%,11%[38.3 µM]
CCN(c1cccc(C)c1)C(C(=O)Nc1ccc(OC)cc1)c1cc2c(cc1[N+](=O)[O-])OCO2 (stereo unspecified),-5%,-18%[1.84 µM],?,1%,-0.9%,-1%,6%
COc1cccc(NC(=O)CN2C(=O)COc3ccc(Cl)cc32)c1,-5%,-13%,-9%,-15%[46.1 µM],0.2%,4%,-26%[38.3 µM]
COc1ccc(-c2nnc(SCC(=O)NCc3ccco3)n2C)cc1,11%,.,-2%,-14%[46.1 µM],-1.0%,-6%,22%[38.3 µM]
Cn1c(SCC(=O)NCc2ccco2)nnc1-c1cccs1,i,8%,10%,1%[46.1 µM],-1.1%,0%,37%[activator][38.3 µM]
CC1CC(=O)Nc2ccccc2N1C(=O)Nc1ccc(F)cc1 (stereo unspecified),2%,.,6%,-27%,0.1%,.,.
CC(C)c1cc(C(C)C)c(S(=O)(=O)NNC(=O)c2ccncc2)c(C(C)C)c1,-2%,-8%[1.84 µM],-17%,2%,1.0%,-1%,14%
O=C(CN1CCN(Cc2ccc3c(c2)OCO3)CC1)c1c[nH]c2ccccc12,1%,-25%,-3%,-4%[46.1 µM],-1.1%,2%,13%[38.3 µM]
Cc1cc(/C=C(\C#N)C(=O)NCc2ccco2)c(C)n1C1CCCC1,10%,-1%,-18%,-16%[46.1 µM],-5.1%,-4%,22%[38.3 µM]
O=C(CSc1nnc(NC(=O)c2ccccc2C(=O)O)s1)Nc1ccccc1Cl,i,2%,-2%,29%,-1.2%,-2%,-1%
Cc1ccc(S(=O)(=O)N2CCN(C(=O)C3=COCCO3)CC2)cc1C,-3%,6%,-4%,-13%[46.1 µM],-1.4%,5%,27%[38.3 µM]
Nc1nnc(SCCN2C(=O)c3ccccc3S2(=O)=O)s1,-15%,-22%,-1%,-9%[46.1 µM],-1.7%,2%,10%[38.3 µM]
Cc1cc(C)cc(OCC(=O)N2N=C(C(F)(F)F)CC2(O)C(C)(C)C)c1 (stereo unspecified),i,-14%,-29%,-15%[46.1 µM],6.1%,-1%,3%
O=C(Nc1ccccc1)NC1(C(=O)N2CCN(C(=O)c3ccco3)CC2)CCCCC1,-7%,?,-3%,-2%[46.1 µM],0.8%,-4%,7%[38.3 µM]
COC(=O)c1ccc(Cl)c(-c2ccc(/C=N/NC(=O)Nc3ccccc3)o2)c1,-3%,22%,-16%,-13%[46.1 µM],0.2%,-1%,-9%[38.3 µM]
CN(C)CCN(C(=O)/C=C/c1cccs1)c1nc2ccc(F)cc2s1,-1%,2%,0%,0%[46.1 µM],0.0%,3%,12%
O=[N+]([O-])c1ccccc1/C=N/n1c(COc2ccccc2)n[nH]c1=S,-3%,-8%,4%,-23%[46.1 µM],-1.3%,0%,7%[38.3 µM]
CCN(CC)C(=O)CC(c1ccc(OC)cc1)c1c(OC)cc(OC)c2ccc(=O)oc12 (stereo unspecified),-6%,.,?,-12%,1.4%,.,.
COc1nc(N(c2ccccc2)c2ccccc2)nc(-n2ccnc2)n1,-1%,-14%,2%,-15%[46.1 µM],3.1%,-3%,21%[38.3 µM]

# Single records, from the list above.
# `O=C(Nc1ccccc1)NC1(C(=O)N2CCN(C(=O)c3ccco3)CC2)CCCCC1` is listed as RECQ1 helicase: -7%; SMN2 splice up: ?; KDM4E inh: -3%; NPSR antag: -2%[46.1 µM]; Epigenetic reg: 0.8%; KinaseGlo FLuc: -4%; IMPase Li inh: 7%[38.3 µM]
# `CN(C)CCN(C(=O)/C=C/c1cccs1)c1nc2ccc(F)cc2s1` is listed as RECQ1 helicase: -1%; SMN2 splice up: 2%; KDM4E inh: 0%; NPSR antag: 0%[46.1 µM]; Epigenetic reg: 0.0%; KinaseGlo FLuc: 3%; IMPase Li inh: 12%

# Continuation.
SMILES,RECQ1 helicase,SMN2 splice up,KDM4E inh,NPSR antag,Epigenetic reg,KinaseGlo FLuc,IMPase Li inh
NC(=S)N/N=C\c1c(OCc2ccccc2Cl)ccc2ccccc12,-14%,-47%[inhibitor],?,-53%,5.6%,2%,-19%
C[C@]12CCC(=O)C=C1CC[C@@H]1[C@@H]2C(=O)C[C@@]2(C)[C@H]1CC[C@]2(O)C(=O)CO,1%&-6%&-3%,-38%&-33%&11%[inhibitor],2%&14%,-11%,2.9%&1.2%&0.0%,3%&-10%,5%&15%&2%
CCN1CCN(C(=O)C2(NC(=O)Nc3ccccc3Cl)CCCCC2)CC1,1%,-19%,5%,10%[46.1 µM],-2.4%,-1%,6%
CS/C(N)=N/N=C/c1ccc([N+](=O)[O-])cc1,12%,7%,?,1%[46.1 µM],-1.7%,-5%,-15%[38.3 µM]
Cn1c(=O)[nH]c(=O)c2c1nc(SCC(=O)O)n2CCc1ccccc1,-2%,4%,-6%,-10%[7.67 µM],2.0%,6%,-20%[38.3 µM]
CCOC(=O)c1sc(NC(=O)c2ccc(S(=O)(=O)N3CCCCC3)cc2)nc1-c1ccccc1,-4%,-61%[inhibitor],?,-8%,1.0%,-3%,-2%
O=S(=O)(Nc1cccc2[nH]ncc12)c1cccs1,-5%,.,5%,5%,0.5%,0%,-2%
CCOCc1cnc(C)nc1NCC(=O)c1c(C)[nH]c2ccccc12,-4%,-4%,-1%,-10%[46.1 µM],-2.3%,-2%,1%[38.3 µM]
Cc1cccc(/C=C2/S/C(=N/N=C3\CC4CCC3(C)C4(C)C)NC2=O)c1 (stereo unspecified),0%,2%,8%,20%[46.1 µM],-0.4%,-3%,19%[38.3 µM]
COCCNCCCOc1ccc(C)cc1Br,-8%,.,-5%,-12%,3.1%,1%,-3%
O=C(Nc1cccc([N+](=O)[O-])c1)C1C2/C=C\CCCCC21 (stereo unspecified),30%,2%,0%,-15%,2.1%[10.1 µM],0%,8%
CCOC(=O)CNC(=O)c1cc(C)oc1C,-2%,?,-9%,-19%[46.1 µM],0.9%,0%,24%[38.3 µM]
CCC(=O)Nc1ccc(-c2nnc(SCC(=O)Nc3nccs3)n2C)cc1,i,-8%,6%,-7%[46.1 µM],-1.1%,3%,-9%[38.3 µM]
CCCCCCCCCCCCC(=O)N1CCCC[C@H]1CNC(=O)[C@@H](N)CCCCN,-7%,.,-4%,.,1.0%,-6%,6%
COc1ccc(-c2cc3ccccc3[nH]2)cc1,i,.,?,3%[7.67 µM],-0.3%,.,.
COc1ccc(-n2c(Cc3ccccc3)nnc2SCc2ccc([N+](=O)[O-])cc2)cc1,-11%,3%,0%,-34%,-1.1%,-3%,12%
O=C(N1CCCCC1)N1CCN(C(=O)N2CCCCC2)CC1,-5%,.,-2%,5%,-0.1%,1%,4%
COCCCn1c(SCC(=O)N2CC(=O)Nc3ccccc32)nnc1-c1ccoc1C,i,-13%,-1%,-3%[46.1 µM],-2.4%,2%,2%[38.3 µM]
CSc1ccccc1C(=O)NCc1ccc(S(N)(=O)=O)cc1,0%,0%,9%,-1%[46.1 µM],2.6%,0%,41%[activator][38.3 µM]
O=C(CSc1nnc(-c2ccncc2)n1-c1ccccc1)N1CCN(c2ccc(Cl)cc2)CC1,13%,-36%[inhibitor],-2%,-4%[46.1 µM],-2.9%,-4%,-12%[38.3 µM]
Oc1ccc(C(=S)N2CCN(c3cccc(Cl)c3)CC2)cc1,-12%,12%,-8%,7%,2.6%,3%,16%
Cc1nc([N+](=O)[O-])c(Br)n1CC(=O)c1cccc([N+](=O)[O-])c1,-1%,-104%[inhibitor],6%,1%,1.6%,6%,19%
COc1ccccc1C1CC(c2c(-c3ccccc3)c3cc(Cl)ccc3[nH]c2=O)=NN1S(C)(=O)=O (stereo unspecified),13%,-39%[inhibitor],?,?,5.5%,-2%,-7%[38.3 µM]
CSC(=N)N,-3%,5%,?,?,-0.1%&0.4%,-9%&1%,5%&2%
CN(C)CC(C)(C)CNS(=O)(=O)c1cccc(Cl)c1Cl,-15%,9%,-9%,-6%[46.1 µM],-1.2%,-2%,12%[38.3 µM]
CCn1c(CCNC(=O)c2ccc(OC)cc2)nnc1SCc1ccc(Cl)c(Cl)c1,-3%,-43%[inhibitor],-6%,-11%,0.0%,-1%,11%
CCn1c(CC(=O)Nc2cccc(Cl)c2Cl)nnc1SCCOc1ccc(OC)cc1,-8%,-5%,-5%,0%[46.1 µM],-2.9%,-4%,1%[38.3 µM]
O=c1c(CCc2ccccc2)nc2cnc(N3CCOCC3)nc2n1C1CC1,-5%,.,.,.,.,.,-9%
Cc1ccccc1C(=O)Nc1ccc(-c2nnc(SC(C)C(=O)O)n2C)cc1 (stereo unspecified),-14%,.,-8%,-32%,1.5%,.,.
COc1ccc(OC)c(C2CC(=O)N3CN(c4ccccc4F)CSC3=C2C#N)c1 (stereo unspecified),14%,?,2.2µM*,-12%[46.1 µM],-1.9%,6%,9%[38.3 µM]
Cc1ccc2c(Cl)cc(Cl)c(OCC(=O)Nc3cccc(S(N)(=O)=O)c3)c2n1,0%,-2%,-22%,-12%,0.0%,2%,18%
O=[N+]([O-])c1c(NCCO)cc(N2CCCCC2)c2nonc12,2%,.,-3%,26%,0.0%,-3%,14%
O=C(CSc1nnnn1-c1ccccc1)N1CCc2ccccc21,i,-1%,4%,-16%[46.1 µM],-0.7%,-3%,-5%[38.3 µM]
CN1CCN(CC/C=C2/c3ccccc3Sc3ccc(S(=O)(=O)N(C)C)cc32)CC1,-2%&3%,-8%,?,?,-1.2%&0.1%,-1%,9%
CC(=O)N1CCc2cc(C(=O)CN3CCN(C(=O)c4ccco4)CC3)ccc21,-1%,2%,?,-15%[46.1 µM],1.9%,2%,-2%[38.3 µM]
Cc1nnc(NC(=O)CSc2nc3c(c(=O)n2C)SC(C)C3)s1 (stereo unspecified),11%,6%,-3%,6%,0.0%,0%,-17%
COc1ccc(OCCSc2nnc(CC(=O)Nc3cccc(Cl)c3Cl)n2C)cc1,i,5%,-3%,-5%[46.1 µM],1.5%,-5%,30%[38.3 µM]
CCOCc1cnc(C)nc1NCC(=O)c1c(C)[nH]c2cc(C)ccc12,-10%,6%,?,-7%[46.1 µM],-3.9%,0%,0%
COc1ccc(C(=O)NCc2nnc(SCCOc3ccccc3)n2C)cc1,i,-9%,28%,13%,0.0%,2%,2%
COc1cc(CO)cc(Br)c1OCC(=O)O,-9%,-6%,-2%,1%[46.1 µM],-4.3%,0%,-4%[38.3 µM]
Cc1cc(=S)n(-c2ccccc2)n1C,-6%,-17%,8%,1%[46.1 µM],3.0%,0%,21%[38.3 µM]

# Some of the compounds tested (hit frequency here may not be typical).
